# Beta2AR agonist – human beta-2 adrenergic receptor agonism by FAP; P07550; Am2.2-beta2AR cells, FAP receptor internalization, flow cytometry; reference of the scale not given here; response, % (no concentration beside the values); 0.43% of 340,000 active; AID 504454;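 active = response above a set limit, near 3 SD of response in nonfluorescent compounds, cut at about 42% in these data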;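 note: stock transfer was 100 nL into about 11 µL; a reference agonist was the positive control; negative values mostly stem from fluorescent compounds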
# Target sequence (P07550 whole entry, looked up): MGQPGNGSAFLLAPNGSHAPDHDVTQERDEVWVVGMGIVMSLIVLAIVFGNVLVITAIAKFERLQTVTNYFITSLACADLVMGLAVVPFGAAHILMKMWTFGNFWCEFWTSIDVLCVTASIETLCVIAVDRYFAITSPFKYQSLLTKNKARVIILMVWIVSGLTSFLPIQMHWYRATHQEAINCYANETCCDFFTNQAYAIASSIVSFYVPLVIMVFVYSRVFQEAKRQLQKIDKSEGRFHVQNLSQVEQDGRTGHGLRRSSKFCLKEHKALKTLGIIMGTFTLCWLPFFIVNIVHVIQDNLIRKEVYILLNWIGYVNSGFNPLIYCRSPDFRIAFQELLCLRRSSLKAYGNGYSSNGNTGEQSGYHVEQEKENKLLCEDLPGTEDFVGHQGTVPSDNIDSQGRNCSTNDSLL
# Beta apoptosis – beta cell apoptosis inhibition | AID 435005 | protection from apoptosis, % (no concentration beside the values) | 0.8% of 300,000 active | INS-1E cytokine-induced death, ATP luminescence, 48 h; percent of positive-control rescue, neutral wells zero;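 active = all replicates at 75% or more, or half of them and the mean; inconclusive = half reach 75% but not the mean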;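 note: 0% = cytokine-treated negative control wells and 100% = positive control rescue; higher means more ATP so stronger rescue from cytokine killing; wells of about 40 µL received 100 nL stock; the first replicate is given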
# T cruzi inh – T. cruzi replication inhibition; T. cruzi beta-gal in NIH3T3, luminescence, 90 h; inhibition, % (no concentration beside the values); 1.4% of 300,000 active; AID 1885;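 active = mean inhibition across valid replicates above about 55%, limit read from the data; inconclusive = mean below that limit but half or more replicates reach it; inactive = mean below it, under half of replicates reach it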;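 note: signal also drops with host cell toxicity which is not excluded here; 0% = plate median of DMSO wells and 100% = zero luminescence signal; higher percent means less beta-gal luminescence so fewer parasites; stock transfer was 50 nL into about 50 µL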
# Calb FLC – affects C. albicans growth with fluconazole; C. albicans CaCi-2 (fluconazole-resistant clinical isolate) + fluconazole, Alamar Blue growth, 48 h; growth inhibition, % (concentration not given with the values); 0.57% of 300,000 active; AID 1979;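 active = most replicates above 75%; inconclusive = exactly half above 75%; inactive = most below 75%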;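 note: all wells also contain fluconazole at 8 µg/ml as a sub-toxic cotreatment; 0% = median of DMSO wells and 100% = median of geldanamycin control wells; wells of about 8 µL received 7.5 nL stock; the first replicate is given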
# ALR inh – blocks human ALR sulfhydryl oxidase activity; P55789; purified ALR, DTT oxidation, H2O2 HRP-luminol luminescence; inhibition, % (test concentration not listed); 3.8% of 290,000 active;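 active = mean and each replicate at 75% or more; inconclusive = only one of the two met; inactive = neither met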;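 note: stock transfer was 7.5 nL into about 7.5 µL; 0% = neutral wells and 100% = wells with inactivated enzyme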
# Target sequence (P55789 whole entry, looked up): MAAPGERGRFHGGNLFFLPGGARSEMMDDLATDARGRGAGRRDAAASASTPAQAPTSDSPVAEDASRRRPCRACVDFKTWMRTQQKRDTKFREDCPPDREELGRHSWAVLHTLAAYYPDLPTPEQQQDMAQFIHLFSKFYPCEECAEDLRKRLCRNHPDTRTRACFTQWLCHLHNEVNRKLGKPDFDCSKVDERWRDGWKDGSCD
# LANA-H2A inh – blocks KSHV LANA binding to histone H2A/H2B. Q9QR71. cell-free LANA-H2A/H2B peptide, fluorescence polarization. inhibition, % (test concentration not listed). 0.6% of 320,000 active. AID 2629; in the data active = inhibition mostly above about 10%, no sharp cut-off; inactive = mostly below about 6.7%;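 note: stock transfer was 7.5 nL into about 10 µL; 0% = median of vehicle wells and 100% = median of positive control wells; one replicate is shown; the record names a cut of 25% in any replicate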
# A1 inh – inhibitors of the anti-apoptotic protein A1, read as caspase activation; MEF A1-2A-BIM cells, Caspase-Glo 3/7 luminescence, 3 h; percent of clofoctol response, vehicle zero; AID 2462; 0.066% of 330,000 active; caspase activation, % (test concentration not listed);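 active = over half of replicate activation scores above 10%, or exactly half above 10 with the replicate mean above 10; inconclusive = replicate mean below 10 yet half the replicates above 10; inactive = over half of replicates below 10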;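 note: wells of about 30 µL received 50 nL stock; many hits fall short of the cut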
# Ecoli rRNA inh – selective bacterial rRNA inhibition in E. coli; E. coli WT GFP vs humanized-ribosome RFP mutants, fluorescence, 24 h; stronger effect = lower value; DMSO median 0, no signal -100; GFP signal change (wild-type ribosome), % (no concentration beside the values); 1.6% of 350,000 active; AID 720706;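 active = significant combined selectivity score with lowered wild-type GFP, culture density cut under 30%, mutant RFP and density less affected; inactive = any of these conditions unmet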; note: one replicate is shown; some compounds called inactive have numbers as strong as hits
# Ecoli rRNA inh OD600 – also measured in Ecoli rRNA inh; calls as there; OD600 change, %; measured here: OD600 growth;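 optical density of the mix in the first replicate; 0 = DMSO median and -100 = no signal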
# Ecoli rRNA inh RFP – also measured in Ecoli rRNA inh; calls as there; RFP signal change, %; measured here: RFP humanized mutant strains;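 first replicate; 0 = DMSO median and -100 = no signal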
# An asterisk follows results filed as active; i = inactive; ? = inconclusive; / = no result given.
SMILES,Beta2AR agonist,Beta apoptosis,T cruzi inh,Calb FLC,ALR inh,LANA-H2A inh,A1 inh,Ecoli rRNA inh,Ecoli rRNA inh OD600,Ecoli rRNA inh RFP
CCCSc1nnc(CSc2nc3ccccc3s2)n1-c1ccccc1,-15,44,53,-10,-49,0.3,0.2,/,/,/
Cc1nn(C(C)(C)C)c(OC(=O)c2ccc3c(c2)OCO3)c1Sc1ccccc1,13,-2,-12,2,-2,3.2,0.0,/,/,/
Cc1cc(C(=O)COC(=O)c2cccnc2Cl)c(C)n1CC1CCCO1 (stereo not drawn),1,8,2,11,1,3.1,-8.2,8,8,6.1
CCCn1c(SCC(=O)Nc2ccc(NC(C)=O)cc2)nc2c1c(=O)n(C)c(=O)n2C,0,4,3,10,/,3.0,-0.2,5,1,-2.7
N#Cc1ccc(NC(=O)CN2C(=O)NC(Cc3ccccc3)C2=O)cc1 (stereo not drawn),6,8,-3,1,0,4.4,0.4,/,/,/
Cc1ccc(C(CNS(=O)(=O)c2ccc(Br)cc2)N2CCN(C)CC2)cc1 (stereo not drawn),16,5,10,-5,-1,5.8,0.8,3,-1,6.2
O=C(N=C1SC2CS(=O)(=O)CC2N1c1ccccc1)C1CCCCC1 (stereo not drawn),-3,-6,-4,-7,-8,3.1,0.8,11,16,-0.7
CC1(C)CC(=O)C2=C(C1)N(N1CCOCC1)C(N)=C(C#N)C2c1cccs1 (stereo not drawn),-4,-8,4,5,15,0.7,2.1,/,/,/
COC(=O)C/C=N/N=C1/NC(=O)/C(=C/C(=O)O)S1,10,-3,-9,8,15,9.3,0.4,8,1,-3.6
CSc1ccccc1NC(=O)COC(=O)c1cnc(C)cn1,2,-1,/,/,-2,-2.0,1.1,15,7,-0.8
c1ccc2c(CN3CCOCC3)csc2c1,-4,-3,-5,1,-10,3.8,0.3,16,12,-2.7
Cn1c(N)c(C(=O)COC(=O)c2ccc3ccccc3c2)c(=O)n(C)c1=O,-4,1,/,/,3,-1.6,-1.6,18,14,0.0
CON=C1CCN(c2ncc(C(F)(F)F)cc2Cl)CC1,-7,5,-7,-1,-8,5.1,0.5,/,/,/
CCN(CC)S(=O)(=O)c1cccc(C(=O)NC(C(=O)NCCc2ccccn2)C(C)C)c1 (stereo not drawn),4,-9,/,/,2,-3.1,0.4,7,7,0.5
Cc1oc2ccc(OCc3ccc(Br)cc3)cc2c1C(=O)O,5,-2,-15,32,4,-3.4,-1.0,-26*,-17*,-8.8*
CSc1ccccc1NC(=O)c1ccc([N+](=O)[O-])cc1,1,-1,-9,-19,-9,-0.8,0.4,5,16,-2.7
CC(C)CCN1C(Nc2ccccc2)=NC[C@@H]1C,-8,-6,0,-10,-5,1.3,0.1,17,6,-2.1
COc1cccc(CN(C)C(=O)c2cccc(S(=O)(=O)NCc3ccccc3)c2)c1OC,14,-2,4,-2,-2,3.1,0.7,-8,-15,0.4
CCOC(=O)c1sc(NC(=O)CSc2ncn(-c3ccccc3)n2)nc1C,-3,1,5,?,-3,0.6,-0.5,/,/,/
O=C(N/N=C/c1cc([N+](=O)[O-])ccc1Cl)c1ccc2nc[nH]c2c1,-6,3,0,4,-5,-0.7,0.7,/,/,/
O=C(Cn1cc(S(=O)(=O)Cc2ccccc2F)c2ccccc21)N1CCOCC1,5,-6,-3,6,-6,3.4,-1.3,11,9,1.0
O=C(c1ccc(NS(=O)(=O)c2ccccc2)cc1)N1CCN(Cc2ccc3c(c2)OCO3)CC1,4,-8,19,-2,-3,-3.3,-0.9,/,/,/
CC(=O)Nc1ccc(NC(=O)CSc2n[nH]c(-c3cccs3)n2)cc1,1,0,-7,-7,-4,i,-0.8,0,1,-0.1
COc1ccc(NC(=O)c2cn(-c3ccccc3)nc2-c2ccncc2)cc1,-10,-1,4,-10,-1,3.1,0.0,11,13,-1.0
CCCNCc1cc(OC)c(OCC(=O)Nc2ccccc2)cc1Br,5,0,18,-17,6,0.9,0.2,4,8,0.0
# Continuation:
SMILES,Beta2AR agonist,Beta apoptosis,T cruzi inh,Calb FLC,ALR inh,LANA-H2A inh,A1 inh,Ecoli rRNA inh,Ecoli rRNA inh OD600,Ecoli rRNA inh RFP
Cc1cccc(C)c1NC(=O)Cn1nnc(-c2ccc(N3CCOCC3)cc2)n1,-10,2,-4,-3,-25,-1.9,1.1,/,/,/
O=C(Nc1ccc([N+](=O)[O-])cc1)c1ccc(S(=O)(=O)N2CCCC2)cc1,10,0,10,12,-3,-3.1,-0.3,10,4,1.4
Cn1cccc1/C=C1\SC(=S)N(CC(=O)O)C1=O,2,0,/,/,6,-17,-5.3,-3,1,19
O=C(NCc1ccccc1)c1onc(CSc2ccc(F)cc2)c1C(=O)NCCCN1CCOCC1,-2,1,34,30,-7,-6.0,0.3,-54,-78,-31
CCN(c1ccc(NC(=O)c2ccc(Cl)nc2)cc1)C(C)C,4,25,-61,-34,?,7.2,-0.1,16,20,2.2
COc1ccc(NC(=O)CC(NC(C)c2ccccc2)C(=O)O)cc1 (stereo not drawn),0,4,-14,7,0,-2.9,-1.0,17,15,0.6
O=C(c1cc(S(=O)(=O)N2CCCCC2)c(Cl)cc1N1CCOCC1)N1CCOCC1,2,-4,-1,-4,-1,1.2,0.5,/,/,/
CCCNC(=O)c1ccc2c(=O)c(O)c(-c3ccc(Cl)c([N+](=O)[O-])c3)[nH]c2c1,0,79*,-9,114*,-14,0.1,?,16,12,5.8
CCOC(=O)c1c(C)[nH]c(C(=O)OCC(=O)N2CCCC2=O)c1C,-5,2,-12,-3,2,2.2,-0.4,4,-1,-0.4
CCOc1ccc(OCC)c(NC(=O)CN(c2ccc(C)cc2)S(=O)(=O)c2c(C)noc2C)c1,4,22,17,-14,-12,-6.3,0.9,/,/,/
CCn1ccnc1CN1CCN(CCC(C)C)C(CCO)C1 (stereo not drawn),-2,-4,-1,-2,-12,-0.5,0.2,13,8,-0.8
CC(C)(C)NC(=O)c1ccccc1NC(=O)C1CC(=O)N(C2CCCCC2)C1 (stereo not drawn),-10,-4,-5,-12,-3,1.3,-0.5,6,18,1.1
O=c1[nH]c(-c2ccccc2F)nc2c1sc(=S)n2Cc1ccccc1,14,29,0,36,-5,-0.3,-0.1,7,14,-2.5
O=C(Nc1ccccc1)Nc1cc([N+](=O)[O-])ccc1F,-6,-2,-1,8,/,/,1.2,/,/,/
Cc1ccc(Oc2nc3ccccn3c(=O)c2/C=C(\C#N)C(=O)Nc2c(C)n(C)n(-c3ccccc3)c2=O)cc1,-12,4,-19,0,/,0.5,0.6,/,/,/
COc1ccc(C2=NOC3(CC(=O)N(c4ccc5ccccc5c4)C3=O)C2)c(OC)c1 (stereo not drawn),1,-3,-14,-7,-3,3.9,-0.2,2,29,18
CCCCNC(=O)COC(=O)c1cc(F)c(F)cc1Cl,-3,-3,-12,-5,-3,-0.6,-0.5,11,10,-7.7
O=C(CCC(=O)N1CCN(C2CCCCC2)CC1)Nc1nnc(C(F)(F)F)s1,1,-7,7,-1,1,-6.9,0.4,/,/,/
CCN(CC(=O)NC(C)C)C(=O)[C@H](C)NC(=O)c1ccc(Br)cc1,-2,1,0,4,-1,-2.5,-0.6,-1,1,-1.7
O=C1c2ccccc2NC(c2ccccc2)N1NS(=O)(=O)c1ccccc1 (stereo not drawn),-3,-6,-3,-2,-2,2.3,0.0,9,16,0.2
Cc1noc(NC(=O)c2ccccc2)c1C#N,-9,2,-15,-2,-6,-2.3,-0.3,/,/,/
Cn1c(=O)oc2ccc(C(=O)CSc3nnnn3-c3ccccc3)cc21,-1,2,4,-25,-8,5.8,0.5,/,/,/
c1ccc(CCC2CCCCN2Cc2nc(-c3ccc4c(c3)OCO4)no2)nc1 (stereo not drawn),-4,-7,27,-16,/,2.2,-0.5,-44,-37,-7.2
CCOC(=O)C(NC(=O)c1ccccc1)(N1CCCC1=O)C(F)(F)F (stereo not drawn),0,-1,-19,7,-3,7.9,-0.2,/,/,/
CCCOc1ccc(NC(=O)CC2C(=O)N(CC)C(=S)N2CCCN2CCN(Cc3ccccc3)CC2)cc1 (stereo not drawn),7,13,6,-30,-12,1.1,0.0,-14,-16,1.8

# Part of the list above, with bars between the fields.
canonical_smiles | Beta2AR agonist | Beta apoptosis | T cruzi inh | Calb FLC | ALR inh | LANA-H2A inh | A1 inh | Ecoli rRNA inh | Ecoli rRNA inh OD600 | Ecoli rRNA inh RFP
Cn1cccc1/C=C1\SC(=S)N(CC(=O)O)C1=O | 2 | 0 | / | / | 6 | -17 | -5.3 | -3 | 1 | 19
O=C(NCc1ccccc1)c1onc(CSc2ccc(F)cc2)c1C(=O)NCCCN1CCOCC1 | -2 | 1 | 34 | 30 | -7 | -6.0 | 0.3 | -54 | -78 | -31
CCN(c1ccc(NC(=O)c2ccc(Cl)nc2)cc1)C(C)C | 4 | 25 | -61 | -34 | ? | 7.2 | -0.1 | 16 | 20 | 2.2
COc1ccc(NC(=O)CC(NC(C)c2ccccc2)C(=O)O)cc1 (stereo not drawn) | 0 | 4 | -14 | 7 | 0 | -2.9 | -1.0 | 17 | 15 | 0.6

# Following part
SMILES,Beta2AR agonist,Beta apoptosis,T cruzi inh,Calb FLC,ALR inh,LANA-H2A inh,A1 inh,Ecoli rRNA inh,Ecoli rRNA inh OD600,Ecoli rRNA inh RFP
O=C(Cc1cccs1)Nc1cc(SCCO)cc([N+](=O)[O-])c1,-7,-1,-13,-4,/,4.7,-1.1,/,/,/
CCC(=O)c1ccccc1OCCCCn1cncn1,-3,-8,3,4,9,3.2,-0.1,11,-4,-3.9
Cc1ccc(-c2noc(CN(C(=O)Cc3ccccc3)C(C)C)n2)cc1,-5,-8,4,-8,-2,6.8,-0.8,/,/,/
O=S(=O)(NC(=S)NC1CCCCC1)c1ccccc1,-3,-10,-17,0,/,10*,-0.8,3,1,-0.7
O=C(c1ccccn1)c1conc1C(=O)c1ccc(Br)cc1,13,5,-13,18,/,3.4,-0.4,/,/,/
O=C(NCc1ccccc1F)C1CCCN1C(=O)Nc1cccc(F)c1 (stereo not drawn),-2,/,-1,8,-9,0.4,1.2,4,-4,-2.7
O=C(COc1ccc(S(=O)(=O)NC2CCCC2)cc1)N1CCCCCC1,5,-3,11,8,/,-7.8,-0.5,/,/,/
CC(=O)c1cnc(-c2cccc(Cl)c2)s1,2,-1,/,-15,/,0.7,-2.6,1,-2,-5.9
CC(C)CCn1c(=O)c2ccccc2n2c(CN(C)Cc3ccccc3)nnc12,-10,1,17,5,-1,1.2,-0.5,/,/,/
O=C(COC(=O)/C=C/c1cccc(Cl)c1)Nc1ccc2[nH]c(=O)[nH]c2c1,7,0,3,5,9,2.9,-0.1,4,-2,0.5
O=C(CSc1n[nH]c(=O)[nH]c1=O)Nc1ccc2c(c1)C(=O)c1ccccc1C2=O,-5,0,2,1,/,2.6,-3.9,-14,-22,-3.8

# Entries above marked active in LANA-H2A inh:
structure	Beta2AR agonist	ALR inh	LANA-H2A inh	Ecoli rRNA inh	Ecoli rRNA inh OD600	Ecoli rRNA inh RFP
O=S(=O)(NC(=S)NC1CCCCC1)c1ccccc1	-3	/	10*	3	1	-0.7

# From PubChem

# These rows are one share of the data; count on the stated rates, not on these rows.
